# Screening results: PubChem BioAssay, National Center for Advancing Translational Sciences (NCATS)
# VDR inh: vitamin D3 receptor (human) inhibition. hit rate 0.93% among 400,000. Potency, µM, for inactives: max response, negative = inhibition, most hits filed as inhibitors. AID 504847. VDR-SRC2-3 peptide fluorescence polarization, 2 h; active means well fitted inhibition curve with a large enough effect; inconclusive means small, poorly fitted or top-dose-only effect, or another doubt; inactive means no such curve, though single readings can be large or run the other way; further: series mostly up to about 120 µM
# Target sequence (P11473 whole entry, looked up): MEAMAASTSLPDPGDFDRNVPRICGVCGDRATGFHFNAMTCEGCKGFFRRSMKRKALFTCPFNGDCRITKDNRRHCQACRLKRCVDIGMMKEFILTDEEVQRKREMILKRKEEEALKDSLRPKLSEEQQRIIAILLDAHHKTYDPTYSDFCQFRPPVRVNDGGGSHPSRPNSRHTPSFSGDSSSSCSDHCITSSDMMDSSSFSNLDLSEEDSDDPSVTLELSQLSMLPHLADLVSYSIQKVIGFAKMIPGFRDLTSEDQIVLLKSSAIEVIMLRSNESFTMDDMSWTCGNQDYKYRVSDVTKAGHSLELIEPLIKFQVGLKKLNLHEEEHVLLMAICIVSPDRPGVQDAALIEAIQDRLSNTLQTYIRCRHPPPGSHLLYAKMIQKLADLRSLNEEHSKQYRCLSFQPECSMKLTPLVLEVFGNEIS
#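 Two reagent solutions held at 4 deg C in the dark were dispensed, compounds pinned at 23 nl, and the mixture incubated 2 h at room temperature. Read-out: fluorescence polarization of VDR–SRC2-3 peptide binding.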
# Active calls of the source: *; ? = inconclusive; & = joins results of further samples; ! = not active in a repeat; [ ] = remark or other dose. On the % scale 0 is the no-effect control and ±100 the full control effect; potency means the concentration at half of the fitted maximal effect.
VDR inh	SMILES
-16.7%	CCOc1cc(S(=O)(=O)NCCCN2CCOCC2)ccc1F
-7.1%	CSCCC(NS(=O)(=O)c1ccc(Cl)cc1)C(=O)OCc1cccc(Cl)c1 (stereo unspecified)
-8.2%	CCC(OC(=O)c1cccs1)C(=O)NCc1ccco1 (stereo unspecified)
2.5%	COCCSc1nnc(NC(=O)c2ccc(OC)c([N+](=O)[O-])c2)s1
-3.3%	CC1CCCC(NC(=O)COC(=O)c2ccc(Br)o2)C1C (stereo unspecified)
-9.2%	Cc1ccc(NC(=O)C(C)SCc2ccccc2)cc1 (stereo unspecified)
-17.3%	OCCn1nc2c3ccccc3nc-2n(-c2ccccc2)c1=S
10.6%	O=C1c2ccccc2C(=O)N1CCCCSc1nc2ccccc2c(=O)n1CCCN1CCOCC1
5.3%	Cc1ccc(/C=N/NC(=O)c2cccc(S(=O)(=O)Nc3cccc(Cl)c3)c2)o1
13.0%	CCN(c1ccccc1)S(=O)(=O)c1ccc(NC(=O)c2nc(SC)ncc2Cl)cc1
4.1%	NC1=NC(c2ccccc2Cl)n2c(nc3ccccc32)N1 (stereo unspecified)
18.5%	CCOC(=O)Cc1nnc(NC(=O)CSc2nnc3c4ccccc4n(C(C)C)c3n2)s1
-1.0%	CCOC(=O)C1C(c2cccnc2)NC(=O)NC1(O)C(F)(F)F (stereo unspecified)
50.1µM*	CCOc1ccc(C(=O)CC(C(=O)O)N2CCN(Cc3ccccc3)CC2)cc1 (stereo unspecified)
-0.9%	Cc1cc2ncn(/N=C/c3ccc(-c4ccccc4)o3)c2cc1C
-19.4%	O=[N+]([O-])c1cccc(S(=O)(=O)NCCCn2ccnc2)c1
?	Cc1cc(-c2nnc(-c3ccccc3)c(-c3ccccc3)n2)c(C)o1
-3.6%	O=C(COC(=O)CC1CCCC1)Nc1ccc(OC(F)F)cc1
-28.5%	CCCCNc1c(-c2cccc(-c3cc(C(C)=O)cs3)c2)nc2cc(C)ccn12
-14.4%	CCCCn1nnc(NC(=S)NC(=O)c2cccs2)n1
2.0%	Cc1ccc(Cl)cc1NC(=O)c1ccc2nc(CCc3ccccc3)oc2c1
-29.1%	COc1cc(OC)cc(-c2sc3ccc(OC)cc3c2C#CCO)c1
56.2µM*!	CC1=C(/C=C/C(C)=C\C=C\C(C)=C\C(=O)O)C(C)(C)CCC1
-3.3%	CCCCN(C(=O)C(C)Oc1cccc(Cl)c1)c1c(N)n(CCC)c(=O)[nH]c1=O (stereo unspecified)
-3.3%&16.2%	O=C(Nc1nnc(S(=O)(=O)N2CCCCCC2)s1)c1cccc(Br)c1
10.7%	Cc1cccc(C)c1NC(=O)CSc1nnc(C)c(=O)[nH]1
13.3%	NC(=O)NC(Cc1ccccc1)C(=O)O (stereo unspecified)
9.5%	O=C(O)c1ccc2c(c1)N(Cc1ccc(F)cc1)C(=O)c1ccccc1S2=O (stereo unspecified)
?	Cc1cccn2c(=O)c3cc(C(N)=S)c(=N)n(CCCN4CCOCC4)c3nc12
-43.6%	Cc1ccc(C)c(N2CCN(C(c3ccncc3)c3nnnn3Cc3ccccc3)CC2)c1 (stereo unspecified)

# 3 entries out of the list, ordered by formula weight, high to low.
VDR inh	SMILES
9.5%	O=C(O)c1ccc2c(c1)N(Cc1ccc(F)cc1)C(=O)c1ccccc1S2=O (stereo unspecified)
56.2µM*!	CC1=C(/C=C/C(C)=C\C=C\C(C)=C\C(=O)O)C(C)(C)CCC1
-8.2%	CCC(OC(=O)c1cccs1)C(=O)NCc1ccco1 (stereo unspecified)

# (next part)
VDR inh	SMILES
12.1%	COc1ccc(C(=O)NCCN2CCOCC2)c(OC)c1
24.8%	CC(C)CNS(=O)(=O)c1ccc(CCC(=O)NCc2cccnc2)cc1
-4.7%	Cc1c(C(=O)N2CC(C)OC(C)C2)oc2ccccc12 (stereo unspecified)
-4.2%	C=CC[C@H](CC(=O)N(CCO)Cc1ccccc1)C(=O)NCCOC(=O)[C@@H](CC=C)CC(=O)OC(C)(C)C
-13.7%	Cc1ccc(C)c(S(=O)(=O)N2CCN(C(C)C(=O)Nc3ccccc3-c3ccccc3)CC2)c1 (stereo unspecified)
-5.7%	CCOc1cc(/C=C2\CCC/C(=C\c3cc(Cl)c(O)c(OCC)c3)C2=O)cc(Cl)c1O
-9.6%	CCN(CC)C1Oc2cc3c(cc2C(c2cc(OC)c(OC)c(OC)c2)C1C)OCO3 (stereo unspecified)
12.4%	COc1ccc(C(CNC(=O)c2cc(S(=O)(=O)NCc3ccccc3)ccc2C)N2CCOCC2)cc1 (stereo unspecified)
-5.1%	O=c1c(-c2ccccc2)c(O)c2ccccc2n1-c1ccccc1
0.7%	O=C(NC1CC2CCC(C1)N2C(=O)NCc1ccccc1)C1CC1 (stereo unspecified)
-5.0%	CNC(=O)c1cc2cc(OC)ccc2n1CCN(C)C
-11.8%	CCCCC(=O)Nc1ccc(C(=O)OC2CCCCC2)cc1
4.7%	CCOc1cccc(C(=O)Nc2cccc(C(C)=O)c2)c1
-15.3%	C=CC[C@@H](CC(=O)NCCO)C(=O)N[C@H](C)COC(=O)[C@@H](CC=C)CC(=O)OC(C)(C)C
1.4%	COc1cc(OC)c(/C=N/NC(=O)c2ccc(Cn3nc([N+](=O)[O-])cc3C)cc2)c(OC)c1
-14.8%	CC(=O)N1CCC(C(=O)Nc2ccc(S(=O)(=O)NCCc3ccccc3)cc2)CC1
3.1%	Cc1nc(-c2cc(-c3nc(-c4ccc(C(C)(C)C)cc4)no3)no2)cs1
14.8%	COC(=O)C(C(=O)OC)[C@@H](NC(=O)OCc1ccccc1)c1ccccc1
-3.4%	COc1ccccc1/C=N/Nc1nc(C)c(C(C)=O)s1
23.2%	C=CCn1c(-c2ccccc2)nc(=S)c2c1CC(C)(C)OC2
-6.8%	CCC(=O)Nc1nnc(SCc2cccc(F)c2)s1
?	O=[N+]([O-])c1cnccc1Nc1ccccc1
-1.0%	O=C(CCNS(=O)(=O)c1ccc(Br)cc1)NCC1CCCO1 (stereo unspecified)
-5.9%	CC(C)c1ccc(S(=O)(=O)c2nnn3c2nc(NCC2CCCO2)c2ccccc23)cc1 (stereo unspecified)
15.3%	COC(=O)CC(=O)CSc1nc2cc(C(=O)NCC(C)C)ccc2c(=O)n1CCc1ccccc1
-22.8%	O=C(NNC(=O)c1cccnc1Cl)c1ccc(F)cc1
-9.8%	Cc1[nH]n(-c2ccccc2)c(=O)c1C=NC1CCCCC1
17.8%	CC1(C)CC(=O)C=C(NCCN2CCN(C(=O)Nc3ccc(Cl)c(Cl)c3)CC2)C1
-2.9%	COc1cccc(/C(O)=C2/C(=O)C(=O)N(c3ccccn3)C2c2ccc(OC)c(OC)c2)c1 (stereo unspecified)
-1.9%	CCc1ccc(N2CN(CCc3ccccc3)CNC2=S)cc1

# Quoted from the listing for reference:
VDR inh	SMILES
-16.7%	CCOc1cc(S(=O)(=O)NCCCN2CCOCC2)ccc1F
-7.1%	CSCCC(NS(=O)(=O)c1ccc(Cl)cc1)C(=O)OCc1cccc(Cl)c1 (stereo unspecified)
-8.2%	CCC(OC(=O)c1cccs1)C(=O)NCc1ccco1 (stereo unspecified)
2.5%	COCCSc1nnc(NC(=O)c2ccc(OC)c([N+](=O)[O-])c2)s1
-3.3%	CC1CCCC(NC(=O)COC(=O)c2ccc(Br)o2)C1C (stereo unspecified)
-9.2%	Cc1ccc(NC(=O)C(C)SCc2ccccc2)cc1 (stereo unspecified)
-17.3%	OCCn1nc2c3ccccc3nc-2n(-c2ccccc2)c1=S

# 2 records picked at random from those above:
VDR inh	SMILES
4.7%	CCOc1cccc(C(=O)Nc2cccc(C(C)=O)c2)c1
-14.8%	CC(=O)N1CCC(C(=O)Nc2ccc(S(=O)(=O)NCCc3ccccc3)cc2)CC1

# The listing continues:
VDR inh	SMILES
-3.2%	CC(C)N(Cc1nccn1C)C(=O)CC1C(=O)NCCN1Cc1ccccc1C(F)(F)F (stereo unspecified)
2.0%	COc1ccc(-n2nc(C(=O)NCC(=O)Nc3cccc(C)n3)c3ccccc3c2=O)cc1
3.0%	COc1cc(-c2n[nH]c(=S)n2/N=C/c2cccn2C)cc(OC)c1OC
-6.6%	Cc1cccc(NC(=S)NC2CCCC2)c1C
-2.1%	O=C(c1ccc(Cl)cc1)[C@@H]1[C@@H]2C(=O)N(c3ccccc3)C(=O)[C@@H]2C2c3ccccc3C=NN21 (stereo partly specified)
-7.2%	Cc1csc(CN(C)C(=O)CC2C(=O)NCCN2Cc2ccc(F)cc2Cl)n1 (stereo unspecified)
-21.0%	O=C(c1ccc(OC2CCN(C/C=C/c3ccccc3)CC2)cc1)N1CCCC1
14.9%	Cc1onc(-c2ccccc2)c1C(=O)Nc1ccc(Br)cc1Cl
-27.3%	CCOc1ccc(NC(=O)Cn2c(=O)n(Cc3ccc(C(=O)NCc4ccc(C)cc4)cc3)c(=O)c3ccccc32)cc1
3.0%	COC(=O)C1C(c2ccc(OC)c(OC)c2)NC(c2ccc(OC)c(OC)c2)C(C(=O)OC)S1(=O)=O (stereo unspecified)
-21.4%	NS(=O)(=O)c1ccc(CCNC(=O)COC(=O)CCc2ccccc2)cc1
-0.3%	Cn1cc(CCC(=O)N2CCCC(CCC(=O)NCc3ccccc3F)C2)cn1 (stereo unspecified)
24.1%	COc1ccccc1NC(=O)CSc1nnc2ccc(-c3cccnc3)nn12
-19.3%	COc1cccc(-n2c(C)cc(/C=C3/C(=N)N4C(=NC3=O)SN=C4S(C)(=O)=O)c2C)c1
-12.0%	CCNc1oc(-c2cccc3ccccc23)nc1C#N
3.2%	COc1ccc(OCCSc2nc(-c3ccccc3)cc(=O)[nH]2)cc1
-11.4%	N#Cc1nnn(Cc2ccccc2)c1N
4.0%&13.1%	Cn1c(=O)oc2cc(S(=O)(=O)CCC(=O)N3CCN(c4ccccc4F)CC3)ccc21
-16.5%	O=c1c(Cl)c(NCc2ccccc2)cnn1C12CC3CC(CC(C3)C1)C2
4.2%	Cc1cc(C)cc(OCC(=O)N2Cc3ccccc3CC2C(=O)O)c1 (stereo unspecified)
16.7%	COc1ccccc1-c1noc(CSc2nnc(Cc3ccccc3)n2-c2ccc(C)c(C)c2)n1
-16.1%	O=C(O)c1c(NC(=O)N(CCO)Cc2ccccc2)sc2c1CCCC2
5.9%	COc1ccc(NC(=O)CSc2nc3c(c(=O)n2-c2ccccc2)SCC3)c(OC)c1
-10.2%	CC(/C=C/c1ccccc1F)=N\NC(=O)C(C)C
-6.0%	CCCOc1cccc(C(=O)NCCNC(=O)c2cnccn2)c1
2.6%	COc1ccc(C2=CC3=CC(=O)C(C)(O)C(=O)C3=CO2)cc1 (stereo unspecified)
12.9%	O=C(O)c1ccc(COc2ccc3c4c(c(=O)oc3c2)CCC4)o1
-3.8%	Cc1ccccc1Cn1nnc(-c2ccc(C(=O)O)cc2)n1
-6.3%	COc1ccc(C(=O)OCC(=O)NC(Cc2ccccc2)C(C)=O)cc1S(=O)(=O)N1CCCC1 (stereo unspecified)
-9.2%	Cc1cccc(C2CC(c3ccc(Cl)cc3)Nc3nc(N)nn32)c1 (stereo unspecified)
12.3%	CCOCCCNC(=O)c1ccc2c(c1)ncn2C1CCCC1
-23.3%	COc1ccc(S(=O)(=O)NCc2cn3c(C)csc3n2)cc1F
-27.3%	NC(=O)CC(NC(=O)c1ccc(Br)cc1)c1ccc(NC2CCCCCCC2)c([N+](=O)[O-])c1 (stereo unspecified)
5.6%	CSC1=NC(C(Cl)(Cl)Cl)N=C(c2ccccc2)N1 (stereo unspecified)
16.0%	CC(C)c1ccc(C(=O)N/N=C/c2cccc(Cl)c2Cl)cc1
5.4%	CN(C)C(CNC(=O)C1CCN(C(=O)/C=C/c2ccccc2)CC1)c1ccccc1 (stereo unspecified)
9.0%	Cc1cc(=O)[nH]c(N/N=C/c2c(C)nn(-c3ccccc3Cl)c2Cl)n1
-15.8%	Cn1c(-c2cccs2)nc2ccccc21
-3.1%	CC(=O)c1c(C)[nH]c(C(=O)OCC(=O)C(C)(C)C)c1C
6.4%	Cc1ccccc1-n1c(SCC(N)=O)nc2sc(-c3ccccc3)cc2c1=O
12.1%	Cc1ccc(NCCC(=O)c2ccc(Cl)c(Cl)c2)cc1
-3.2%	CC(C)(C)C1CCC2(CC1)Nc1cccc3cccc(c13)N2
-12.4%	CCOc1cc(/C=N/NC(=O)CN2CCCCC2)ccc1OCc1ccc(Cl)cc1
-11.8%	O=C(Nc1ccc(O)cc1)c1ccc2c(c1)C(=O)N(Cc1ccccc1)C2=O
-1.6%	COc1ccc(NC(=O)C2Cc3cccc(OC)c3O/C2=N\O)cc1 (stereo unspecified)
-10.9%	COc1cccc(C2CC(=O)NC(SC)=C2C#N)c1 (stereo unspecified)
-28.4%	COc1ccccc1N1CCN(c2c(CN3CCCC3)c(=O)oc3ccccc23)CC1
20.6%	CCOc1cc(CNc2ccc(CNc3ncn[nH]3)cc2)ccc1OCc1ccccc1
-6.0%	O=C(CSc1ccc(C(F)(F)F)cc1[N+](=O)[O-])NCCOc1ccccc1
?	Cc1[nH]c2ccccc2c1C1(O)C(=O)N(C(C)C)c2ccccc21 (stereo unspecified)
12.6%	CC(NS(=O)(=O)c1ccc(Cl)cc1)C(=O)NCc1ccco1 (stereo unspecified)
38.0%[activator]	O=C(NCCCn1ccnc1)c1cccc(Br)c1
-13.7%	CCN1CCN(C(=O)c2ccc(CSc3ccc(C)cc3)cc2)CC1
1.9%	CC[C@H](C)[C@H](NC(=O)[C@H](C)NC(=O)[C@H](Cc1cnc[nH]1)NC(=O)[C@@H]1CCCN1C(=O)CNC(=O)[C@H](CC(C)C)NC(=O)[C@H](CC(C)C)NC(=O)[C@H](Cc1ccc(O)cc1)NC(=O)CNC(=O)[C@H](C)NC(=O)[C@H](CO)NC(=O)[C@H](CC(N)=O)NC(=O)[C@H](CC(C)C)NC(=O)[C@@H](NC(=O)[C@H](Cc1c[nH]c2ccccc12)NC(=O)CN)[C@@H](C)O)C(=O)O
-12.1%	COc1ccc2c(c1OC)C(=O)OC2C/C(=N\NC(N)=O)c1ccccc1 (stereo unspecified)
2.0%	CCn1c(O)c(/C=N/N=C2CCCC2)c2ccc(C3=NNC(=O)CC3)cc21

# Only part of the results is shown; rates above refer to the full screens.
